Source: PubChem BioAssay
TRPML1 inh: inhibitors of human TRPML1 channel. TRPML1-inducible cells, Ca2+ dye fluorescence, FDSS; hits give low values; inhibition of EC80 agonist-evoked calcium signal. activity change, negative = inhibition, % (concentration not given with the values). 390,000 compounds, 0.02% hits. AID 624415. Q9GZU1; in the data active means activity change below about -50%; inconclusive means about -30% to -50%; inactive means above about -30%;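 also: stimulus is agonist 54-4 at its EC80 concentration; % is scaled to controls: 0 for no effect and ±100 for the full control effect; the text of the record puts the active cut at -80%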
Target sequence (Q9GZU1 whole entry, looked up): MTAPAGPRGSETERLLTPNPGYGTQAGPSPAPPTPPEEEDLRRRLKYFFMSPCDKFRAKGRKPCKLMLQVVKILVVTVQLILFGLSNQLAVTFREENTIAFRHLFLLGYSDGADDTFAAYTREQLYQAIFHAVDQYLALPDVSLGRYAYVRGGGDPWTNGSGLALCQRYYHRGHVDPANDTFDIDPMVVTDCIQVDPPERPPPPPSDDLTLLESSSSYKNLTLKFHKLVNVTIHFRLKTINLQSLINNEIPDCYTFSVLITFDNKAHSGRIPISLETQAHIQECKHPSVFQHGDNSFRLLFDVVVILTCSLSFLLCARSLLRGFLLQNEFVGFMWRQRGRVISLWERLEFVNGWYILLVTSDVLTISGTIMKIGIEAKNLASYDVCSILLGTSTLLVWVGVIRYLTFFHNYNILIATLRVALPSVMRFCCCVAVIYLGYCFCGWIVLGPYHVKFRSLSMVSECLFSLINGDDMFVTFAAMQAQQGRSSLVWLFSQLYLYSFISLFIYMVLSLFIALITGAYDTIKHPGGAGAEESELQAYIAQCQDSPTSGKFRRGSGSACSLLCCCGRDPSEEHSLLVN
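TRPML1-DL cells, Tet-induced overnight (~16 h, 37 °C) at 1,500 cells/well, were loaded with Ca8 no-wash dye plus quencher for 45-90 min at room temperature. Compounds were pinned during FDSS kinetic reading; agonist 54-4 at EC80 (4 uM final) then added.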
ClpP mod: qHTS Assay for Activators of ClpP; 340,000 compounds, 1.9% hits; purified B. subtilis ClpP, FRET peptide cleavage, 20 min; AID 651965, 2013; Potency, µM (top dose mostly 57.5 µM), without a hit: at the highest dose activity change, negative = active; active = well fitted falling curve with a large enough effect; inconclusive = small, poorly fitted or top-dose-only effect; inactive = no such curve, though single readings can be large or run the other way; also: potency is read from the fitted curve at half-maximal effect; the source files actives as falling curves though it sought activators and does not explain the sign; nearly all actives have a fitted effect of over 65% in size; many hits overshoot -100%
Target sequence (P80244 whole entry, looked up): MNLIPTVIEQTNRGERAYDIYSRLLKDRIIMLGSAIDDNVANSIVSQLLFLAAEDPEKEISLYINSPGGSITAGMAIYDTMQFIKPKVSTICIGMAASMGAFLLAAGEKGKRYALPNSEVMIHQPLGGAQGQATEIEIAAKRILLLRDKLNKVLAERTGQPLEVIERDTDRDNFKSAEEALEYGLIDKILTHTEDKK
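FRET quenching reversal measured ClpP activation: 10 microg/mL B. subtilis ClpP at pH 8 with the FRET-FV decapeptide, read at 430 nm after 320 nm excitation. The 20-min minus 0-min signal was scaled between DMSO/no-enzyme wells and ADEP (5.8 microM final).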
* hit, by the source's call; u = inconclusive. An excerpt, so the mix of outcomes need not match the whole.

Compound,TRPML1 inh,ClpP mod
CCCCC[C@@H]1[C@H]2[C@H]3C(=O)N(c4ccccc4)C(=O)[C@H]3CC(=O)[C@H]2[C@H](c2ccccc2)N1S(=O)(=O)c1ccc(C)cc1,29.4,1.8%
COC(=O)c1cc(NC(=O)CC2C(=O)OCCN2Cc2ccccc2)cc(C(=O)OC)c1 (stereo not drawn),-1.7,2.1%
Cn1c(C(=O)N2CCC(C(=O)NCCc3ccc(S(N)(=O)=O)cc3)CC2)cc2sccc21,17.4,2.6%
CC(=O)c1cccc(NC(=O)c2nc3ccccc3nc2N2CCCCC2)c1,u,-0.9%
Cc1c(NC(=O)c2ccc(N3CCC(C)CC3)c([N+](=O)[O-])c2)cccc1-c1nc2ccccc2o1,-8.2,-3.0%
CCC(O)c1nc2ccccc2n1CCOc1cc(C)cc(C)c1 (stereo not drawn),1.4,-0.8%
COc1ccc(S(=O)(=O)N2CCC(C(=O)NC(C)c3ccccc3)CC2)cc1 (stereo not drawn),11.1,-0.2%
CCOC(=O)c1c(C)oc2nc(C)nc(NCCCN3CCN(c4ccccc4OC)CC3)c12,11.0,-4.1%
CCc1ccc(C(=O)c2cn(CC(=O)Nc3ccc4c(c3)OCO4)c3cc(OC)c(OC)cc3c2=O)cc1,-16.4,11.9%
CCOc1ccc2nc(N(Cc3cccnc3)C(=O)c3cccs3)sc2c1,9.7,-2.9%
Cc1sc2ncn(CC(=O)N(C)c3ccc(Br)cc3)c(=O)c2c1S(=O)(=O)N1CCC(C)CC1,51.7,0.3%
Cc1cc(C)cc(NC(=O)CSCn2nnc3c(=O)[nH]c(Cc4ccc(F)cc4)nc32)c1,-0.1,-3.0%

The list continues.
Compound,TRPML1 inh,ClpP mod
CN(Cc1ccccc1)S(=O)(=O)c1ccc(F)c(C(=O)Nc2ccccc2C(F)(F)F)c1,-3.2,19.4%
CCn1cc(S(=O)(=O)c2ccc(C)cc2C)c(=O)c2cc(F)c(N3CCCCC3)cc21,-19.2,u
Cc1cc(C)cc(OCC(=O)NCC2(N(C)C)CCCCC2)c1,-0.2,2.1%
CCN(CC)c1ccc(NC(=O)C2CCN(S(=O)(=O)c3c(C)noc3/C=C/c3ccccc3F)CC2)c(C)c1,5.0,-1.5%
Cc1ccc2nc(-c3ccc(NC(=O)COc4ccc(Cl)c(C)c4)cc3)sc2c1,25.5,-15.9%
Cc1cccc(OCC(=O)OCc2cc(=O)n3nc(-c4cccs4)sc3n2)c1,-14.7,-4.3%
CC(Sc1cn(CCNC(=O)c2ccccc2F)c2ccccc12)c1ccccc1 (stereo not drawn),1.1,-3.5%
CCN(CC)c1ccc(NC(=O)c2cccn2-c2nnc(N3CCCCC3)s2)c(C)c1,-17.0,0.5%
COc1ccc(NC(=O)CC2C(=O)N(c3cccc(C)c3)C(=O)N2Cc2cccnc2)cc1 (stereo not drawn),8.6,0.8%
COCCNC(=O)CSc1nc(-c2cc(OC)c(OC)c(OC)c2)[nH]c1-c1ccc(Cl)cc1,-0.2,u
O=C(NCc1ccccc1Cl)c1cnc(N2CCCCC2)c2ccccc12,-0.8,31.6µM*
COc1ccc(Cc2c(-c3ccc(F)cc3)nc3c(C)cc(Br)cn23)c(C)c1,19.5,-7.9%

One compound at a time, as listed above.
Profile of Cc1c(NC(=O)c2ccc(N3CCC(C)CC3)c([N+](=O)[O-])c2)cccc1-c1nc2ccccc2o1 : TRPML1 inh = -8.2; ClpP mod = -3.0%
Profile of O=C(NCc1ccccc1Cl)c1cnc(N2CCCCC2)c2ccccc12 : TRPML1 inh = -0.8; ClpP mod = 31.6µM*

Further records
Compound,TRPML1 inh,ClpP mod
Cc1ccc2c(=O)cc(C(=O)Nc3c(C(=O)c4ccccc4)oc4ccccc34)oc2c1C,8.4,-1.9%
Cc1cccc(N2CCN(C(=O)CSCc3ccc(F)cc3)CC2)c1C,36.4,-1.5%
CCOc1ccccc1C(=O)N1CC(=O)Nc2ccc(C)cc2C1c1ccccc1 (stereo not drawn),0.4,2.2%
Cc1noc(C)c1S(=O)(=O)Nc1ccc2c(c1)C(=O)N([C@H](C)CO)C[C@H](C)[C@H](CN(C)S(=O)(=O)c1ccc(Cl)cc1)OCCCC[C@@H](C)O2,17.1,-3.6%
O=C(NCCN1CCNC1=O)c1ccc2sc([C@@H]3O[C@H](CO)[C@H](O)[C@H](O)[C@H]3O)nc2c1,93.2,-2.0%
Cc1c(C)n(Cc2ccc(F)cc2)c2ccc(C(=O)Nc3ccc(Cl)cc3)cc12,36.8,31.6µM*
COc1ccc(Cn2c(C(=O)O)c(CNC3CCCC3)c3ccc(OC)cc32)cc1,-6.1,u
O=C(COc1ccccc1)Nc1ccc(OCc2cc(=O)n3ccsc3n2)cc1,-19.5,-1.9%
O=C(CCCn1c(=O)c2sccc2n(Cc2ccc(Cl)cc2)c1=O)NCc1ccc2c(c1)OCO2,8.8,-3.6%
CC(=O)Nc1cccc(NC(=O)CSc2cn(CC(=O)N3CCCC3)c3ccccc23)c1,3.9,0.3%
Cc1ccc(CNC(=O)CN2C(=O)C3(SCC(=O)N3c3ccc(F)c(F)c3)c3ccccc32)cc1 (stereo not drawn),0.4,1.3%
COc1ccc(NC(=O)Cn2nc(C)c3c(C)n(-c4ccccc4)nc3c2=O)cc1OC,2.2,-0.5%

Further structures.
Compound,TRPML1 inh,ClpP mod
COc1ccc(N2CCN(c3cc(C)nc4nncn34)CC2)cc1,-12.2,-1.2%
COc1ccc(OC)c(CNc2nc3ccc(C)cc3n3nnnc23)c1,-7.6,-2.9%
CCOC(=O)c1noc2ncn(CC(=O)Nc3cccc(C(F)(F)F)c3)c(=O)c12,12.7,-6.1%
COc1ccc(Cl)cc1C(=O)Nc1sc2c(c1C(=O)OC(C)C)CCCC2,19.2,-3.6%
CCCCCn1c(=O)[nH]c2cc(C(=O)Nc3ccc(F)c(F)c3)ccc2c1=O,18.7,0.6%
CCOC(=O)N1CCN(Cc2nc3cc(NC(=O)c4ccccc4Cl)ccc3n2C(C)C)CC1,-8.8,-3.0%
CCC(Sc1nc2c(sc3ccccc32)c(=O)n1CCc1ccc(OC)c(OC)c1)C(=O)N(CC)CC (stereo not drawn),64.6,-13.9%
CCOc1ccc(C(=O)NCc2ccc3c(c2)CCN3C(=O)c2ccc(C)cc2)cc1OCC,-11.2,-5.6%
COc1ccc(N(C)C(=O)Cn2cnc3sc(C)c(S(=O)(=O)N4CCN(c5ncccn5)CC4)c3c2=O)cc1,-13.9,-5.2%
Cc1ccc(/C=C/c2onc(C)c2S(=O)(=O)N2CCC(C(=O)Nc3cc(C)ccc3C)CC2)cc1,0.1,-0.3%
Cc1ccccc1N1CC(c2nc3ccccc3n2Cc2ccc(Br)cc2)CC1=O (stereo not drawn),17.3,-0.2%
CC(C)COC(=O)N1CCCCC1c1cc(C(=O)Nc2ccc3c(c2)OCO3)no1 (stereo not drawn),13.0,-3.7%

Quoted from the results shown for reference:
Compound,TRPML1 inh,ClpP mod
COc1ccc(N2CCN(c3cc(C)nc4nncn34)CC2)cc1,-12.2,-1.2%
COc1ccc(OC)c(CNc2nc3ccc(C)cc3n3nnnc23)c1,-7.6,-2.9%
CCOC(=O)c1noc2ncn(CC(=O)Nc3cccc(C(F)(F)F)c3)c(=O)c12,12.7,-6.1%

Other structures
Second line of a record: TRPML1 inh	ClpP mod
- Cc1ccsc1CN(Cc1ccco1)c1cnc(S(C)(=O)=O)nc1C(=O)Nc1ccc(Cl)cc1
    1.6	-4.8%
- CCc1ccc(NC(=O)Nc2nnc(N(C)C3CCCCC3)s2)cc1
    -6.3	-1.5%
- CCOC(=O)c1c(NC(=O)COc2ccc(OC)cc2)sc(C(=O)N(CC)CC)c1C
    85.0	-3.0%
- Cc1ccccc1OCC(=O)Nc1cc(-c2cccc(Br)c2)nn1-c1ccccc1
    -3.4	0.4%
- CCOC(=O)c1sc2ncn(CC(=O)Nc3ccc(N(C)C)cc3)c(=O)c2c1C
    -6.1	-1.4%
- COc1cc(NC(=O)c2cc(-c3cccc(Cl)c3)on2)c(OC)cc1Cl
    10.9	-0.1%
- CCOC(=O)c1sc(NC(=O)C(C)Sc2nc(-c3ccccc3)cc(C(F)(F)F)n2)c(C(=O)OC)c1C (stereo not drawn)
    19.5	-1.6%
- CC(C)CNc1ncnc2c1nnn2C
    57.9	-2.2%
- Cc1ccc(OC(C)C(=O)Nc2nonc2-c2ccc(Br)cc2)cc1C (stereo not drawn)
    12.5	-0.1%
- COc1ccc(-c2cc(C(C)=O)c(C)n2CCC(=O)NC2CCCCC2)cc1
    -3.0	0.4%
- CCOc1ccc(-c2nnc(SCC(=O)N(CC)c3cccc(C)c3)o2)cc1
    4.2	0.6%
- COc1ccccc1Cn1c(CNS(=O)(=O)c2ccccc2Cl)nc2cccnc21
    28.3	-8.8%
- CCCN(C(=O)c1nn(-c2ccc(OC)cc2)c(=O)c2c1c1ccccc1n2C)c1ccc(CC)cc1
    21.2	-3.0%
- COc1ccc(C(=O)c2cnc3ccc(C)cc3c2S(=O)(=O)c2ccccc2)cc1
    7.4	-10.0%
- Cc1ccc(CSc2nc3cccnc3n2Cc2nc(-c3ccccc3F)oc2C)cc1
    17.3	4.4%
- COc1ccc(NC(=O)Cn2c(=O)c(-c3cc(C)ccc3NC(C)=O)nc3ccccc32)c(OC)c1
    5.2	0.8%
- COc1ccc(CNC(=O)Cn2ncn3nc(-c4cccs4)cc3c2=O)cc1
    1.6	-27.4%
- Cc1ccc(CNC(=O)c2c(-c3ccc(F)cc3F)noc2C)o1
    4.0	1.1%
- Fc1ccc(C(NCCc2ccc(Cl)cc2)c2nnc(-c3ccccc3Cl)o2)cc1 (stereo not drawn)
    0.7	-1.1%
- Cc1cc(Cl)ccc1NC(=O)CN(c1ccccc1Br)S(C)(=O)=O
    -19.5	-1.1%

Next section:
Second line of a record: TRPML1 inh	ClpP mod
- O=C(C1COc2cc(S(=O)(=O)Nc3ccc(Cl)cc3)ccc2O1)N1CCCC1 (stereo not drawn)
    u	0.5%
- CCOc1ccc(C2=CC(c3cc(Br)ccc3F)n3ncnc3N2)cc1Cl (stereo not drawn)
    -10.9	u
- COc1cccc(-c2nc3c(C#N)c[nH]n3c2NC2CCCC2)c1OC
    1.7	-9.3%
- Cc1cccc(CN2CCN(CC(=O)NCc3ccc(Cl)cc3)C2=O)c1
    21.3	-0.4%
- Cc1ccc(NC(=O)N2CCc3cc(S(=O)(=O)N4CCC(C)CC4)ccc32)cc1C
    u	35.1%
- Cc1ccc2c(=O)cc(C(=O)Nc3nnc(CC(C)C)s3)oc2c1C
    38.4	-0.1%
- Cc1c(C(=O)N2CCC(C(=O)Nc3ccc(F)cc3)CC2)sc2nc[nH]c(=O)c12
    -2.7	-6.1%
- COc1ccc(C2c3c(-c4ccccc4O)n[nH]c3C(=O)N2CCc2ccccc2)cc1 (stereo not drawn)
    21.6	-8.6%
- CCOc1ccc(NC(=O)C(CC)n2c(=O)c(-c3ccccc3NC(C)=O)nc3ccccc32)cc1 (stereo not drawn)
    -7.2	-2.7%
- CCC1CN(C(=O)Nc2ccc(C(=O)O)cc2)c2cc(Cl)ccc2O1 (stereo not drawn)
    -2.2	-1.1%
- Cc1ccc(N(Cc2cccs2)C(=O)COc2cccc(C)c2)cc1
    24.2	0.8%
- CC1CCc2c(sc3nc(-c4cc5cc(Br)ccc5oc4=O)[nH]c(=O)c23)C1 (stereo not drawn)
    7.4	-1.6%
- Cc1ccc(NC(=O)c2ccco2)c(OCc2cc(=O)n3cc(C)sc3n2)c1
    12.0	-6.8%
- Cc1ccc(-c2nnc3c4ccccc4c(C)nn23)cc1NC(=O)c1ccccc1Cl
    -9.2	-20.9%
- CC(=O)N1CCc2nc3sc(C(=O)c4ccc(F)cc4)c(N)c3c(C(F)(F)F)c2C1
    -19.9	-2.2%
- O=C1CN(C(=O)COc2ccc(Cl)cc2Cl)C(c2ccc(F)cc2)c2cc(F)ccc2N1 (stereo not drawn)
    35.8	-2.3%
- Cc1ccc(N2CC(NC(=O)c3ccccc3Br)CC2=O)cc1 (stereo not drawn)
    -19.4	0.4%
- CCC(=O)N1CCc2cc(CNC(=O)Nc3ccccc3Cl)ccc21
    3.2	1.8%
- Cc1ccc2c(c1)N(CC(=O)NCc1cccc(Cl)c1)C(=O)c1cccnc1O2
    -19.0	0.6%
- CCOC(=O)c1ccc(NC(=O)c2c(NC(C)=O)sc3c2CCC(C)C3)cc1 (stereo not drawn)
    33.9	-5.6%

Next part
Second line of a record: TRPML1 inh	ClpP mod
- Cc1ccc2c(CN3CCN(C(=O)c4ccc(Br)cc4)CC3)cc(=O)oc2c1
    -6.6	-0.3%
- CCOC(=O)c1cccc(NS(=O)(=O)c2c(C)nc3sc(C)cn3c2=O)c1
    -6.3	-4.8%
- COc1cccc(CNC(=O)c2nn(C)c3c2CSc2ccccc2-3)c1
    14.6	-2.5%
- CCCCNC(=O)CSc1nc(-c2ccc(OC)cc2)cc(C(F)(F)F)n1
    12.5	3.8%
